Bioassay records: PubChem, several laboratories
RanGTP-Impb inh = inhibitors of RanGTP-importin-beta interaction, primary screen, biochemical, FRET, CFP-Ran, YFP-importin-beta, homogeneous; cell-free CFP-Ran/YFP-importin-beta FRET ratio; inhibition, % (concentration not given with the values); 1.1% of 300,000 active; Ran GTPase (GTP-bound) - importin-beta complex;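 active means most replicates above 15%; inconclusive means exactly half above 15%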;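 further: 0% = DMSO wells and 100% = Ran loaded with GDP instead of GTP; wells of about 40 µL received 100 nL stock; the first replicate is given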
UCH37 DUB inh = inhibitors of human UCH37 deubiquitinase, primary screen, biochemical, Ub-AMC cleavage, fluorescence; Ubiquitin carboxyl-terminal hydrolase isozyme L5 (Homo sapiens), Q9Y5K5; purified proteasome/UCH37; inhibition, % (concentration not given with the values); 0.33% of 330,000 active; AID 588478, 2011;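 active means mean of two replicates above 20%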;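 further: 0% = compound-free wells with enzyme and 100% = wells lacking proteasome; stock transfer was 100 nL into about 20 µL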
Target sequence (Q9Y5K5 whole entry, looked up): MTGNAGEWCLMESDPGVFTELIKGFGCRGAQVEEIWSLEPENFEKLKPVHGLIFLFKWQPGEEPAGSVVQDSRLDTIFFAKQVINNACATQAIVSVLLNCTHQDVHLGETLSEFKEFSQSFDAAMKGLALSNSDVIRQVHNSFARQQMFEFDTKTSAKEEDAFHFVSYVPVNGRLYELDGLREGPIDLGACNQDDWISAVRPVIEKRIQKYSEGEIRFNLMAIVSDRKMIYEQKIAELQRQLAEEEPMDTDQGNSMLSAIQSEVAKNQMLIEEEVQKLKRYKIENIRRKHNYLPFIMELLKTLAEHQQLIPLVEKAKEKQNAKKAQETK
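system = Proteasome-associated human UCH37 deubiquitinase | amount = 0.15 nM proteasome as dispensed | medium = pH 7.4 Tris-HCl (50 mM) with ovalbumin, ATP-MgCl2, DTT | incubation = 30 min preincubation with enzyme, 25 min cleavage at room temperature | detection = AMC fluorescence 355/460 nm | read-out basis = percent inhibition | controls = no-proteasome and no-compound wells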
HNF4A DNA FP = change in binding of human HNF4A to DNA, primary screen, biochemical, fluorescence polarization, FITC-DNA | Hepatocyte nuclear factor 4-alpha (Homo sapiens), P41235 | 1 h | activity change, % at 10 µM | 0.3% of 360,000 active | AID 1224865, 2016; in the data active means activity change above about 30%, passing the limit was not always enough;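 further: controls were the assay level and a saturating level of protein; the project sought stronger binding though the title names inhibitors; some compounds called inactive have numbers as strong as hits; positive values seem to mean higher polarization but the record does not say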
Target sequence (P41235 whole entry, looked up): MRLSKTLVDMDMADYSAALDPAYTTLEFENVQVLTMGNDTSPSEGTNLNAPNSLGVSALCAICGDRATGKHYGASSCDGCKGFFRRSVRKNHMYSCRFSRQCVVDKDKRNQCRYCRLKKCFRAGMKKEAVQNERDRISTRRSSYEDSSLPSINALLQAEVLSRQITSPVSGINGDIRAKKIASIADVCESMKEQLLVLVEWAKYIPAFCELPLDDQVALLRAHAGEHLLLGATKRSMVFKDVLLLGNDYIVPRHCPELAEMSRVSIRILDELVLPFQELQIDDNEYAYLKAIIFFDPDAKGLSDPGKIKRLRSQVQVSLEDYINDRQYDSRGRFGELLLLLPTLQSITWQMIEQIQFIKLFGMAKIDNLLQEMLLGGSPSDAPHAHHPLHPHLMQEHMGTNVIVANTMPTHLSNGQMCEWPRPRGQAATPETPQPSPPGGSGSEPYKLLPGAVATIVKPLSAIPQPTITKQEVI
MLL AF4-AF9 inh = inhibitors of AF4 peptide binding to AF9, primary screen, biochemical, AlphaScreen, biotin-AF4 peptide, FLAG-AF9, single point | 0.47% of 350,000 active | AID 651704, 2012 | inhibition, % at 10 µM;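 active means every replicate reaching a set inhibition limit, whatever the replicate mean, cut at about 25% in these data; inconclusive means mean inhibition reaches that limit but some replicates miss it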;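 further: 0% = plate neutral control median and 100% = total signal loss; the record names both 10 and 1 µM as test concentration; the first replicate is given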
FGF22 binding = binders of human FGF22 protein, primary screen, FGF22 synaptogenesis inhibitor project, biophysical, thermal shift, single point. 1.5% of 340,000 active. recombinant FGF22 thermal shift, SYPRO orange fluorescence; percent of sucrose octasulfate shift, DMSO zero. AID 651658, 2012. Fibroblast growth factor 22 (Homo sapiens), Q9HCT0. calls only at 9.99 µM;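 active means melting point raised past a set limit in the mean and every replicate; inconclusive means no clear call; three in four hits are not shown here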
Target sequence (Q9HCT0 whole entry, looked up): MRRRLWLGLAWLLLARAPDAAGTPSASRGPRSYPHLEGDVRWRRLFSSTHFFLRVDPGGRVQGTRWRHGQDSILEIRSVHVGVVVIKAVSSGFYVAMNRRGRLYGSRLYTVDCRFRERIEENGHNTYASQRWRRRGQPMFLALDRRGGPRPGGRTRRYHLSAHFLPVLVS
Vif A3G = inhibitors of Vif binding to APOBEC3G peptide, primary screen, biochemical, TR-FRET, GST-Vif 1-94, biotin-A3G peptide, dose response retest (AID 1117319) | Virion infectivity factor (Human immunodeficiency virus type 1 group M subtype B (isolate … | TR-FRET GST-Vif / biotin-A3G peptide binding; higher % means a stronger effect; test concentration not given here; strong numbers were not always called active | one-dose inhibition, %; IC50 in µM for titrated hits | 0.57% of 260,000 active;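 active means above the screen mean plus three standard deviations and confirmed in dose response; inconclusive means results disagree or hit not tested in dose response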;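 further: Vif residues 1-94 fused to GST binding biotinylated APOBEC3G peptide 110-148; 0% = full assay without inhibitor and 100% = GST in place of GST-Vif; retest series ran down from 100 µM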
E coli growth = E. coli growth inhibition, primary screen, OD600 | Escherichia coli growth, 23 h; hits give low values | OD600 absorbance (test concentration not listed) | 0.21% of 330,000 active | AID 1053175, 2014;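 active means OD600 absorbance below the run mean of sample wells minus 3.6 SD, in any replicate, cut at about 0.56 in these data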;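 further: stock transfer was 300 nL into about 60 µL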
Numbers without * were called inactive; i = inactive; ? = inconclusive; / = not tested or not shown. This is a subset; count on the stated rates, not on these rows.

The line under a structure holds: E coli growth, MLL AF4-AF9 inh, FGF22 binding, HNF4A DNA FP, RanGTP-Impb inh, Vif A3G, UCH37 DUB inh
#1 O=C(Nc1ccc(S(=O)(=O)NCC2CCCO2)cc1)c1ccc(F)cc1 (stereo not drawn)
 : 0.67, 1.4, i, -2.1, -3.8, /, -1.4
#2 CCOC(=O)C1=C(O)/C(=C\c2ccc(OC)c(OC)c2)N=C1C
 : 0.7, /, /, 2.0, 2.8, 11%, 5.6
#3 Cc1c(C(=O)NNC(=S)NCc2ccc(Cl)cc2)oc2ccccc12
 : 0.69, -0.1, i, 0.1, 0.3, /, 5.5
#4 O=C(CCNC(=O)c1ccc(Cl)cc1)Nc1ccncc1
 : 0.66, -0.7, i, -1.6, /, 0%, 0.2
#5 CC(C)C[C@H](NC(=O)c1[nH]cnc1C(=O)N[C@@H](C)C(=O)OCc1ccccc1)C(=O)OCc1ccccc1
 : /, /, i, -2.1, /, /, 3.9
#6 COc1ccc(-c2noc(C3CCCN(S(=O)(=O)c4cccc(Cl)c4)C3)n2)cc1OC (stereo not drawn)
 : 0.74, 5.3, i, -2.1, 0.3, -4%, 5.8
#7 Cc1nc2cc(C)c(C)cc2s1
 : 0.67, -0.8, i, -1.1, -0.6, -2%, 0.1
#8 COc1ccc(/C=C(/NC(=O)c2cccs2)C(=O)N2CCOCC2)cc1OC
 : 0.65, /, /, -1.3, 0.7, 13%, 6.7
#9 Cc1cccc(NC(=S)NCc2ccco2)n1
 : 0.69, -1.9, i, -0.9, 3.9, -12%, 5.9
#10 Cc1ccc(NC(=O)CN2CCOCC2)c(Br)c1
 : 0.68, -0.5, i, 3.4, -1.7, /, 3.7

An excerpt from above in order of the Vif A3G value, high to low:
entry | molecule | MLL AF4-AF9 inh | RanGTP-Impb inh | Vif A3G | UCH37 DUB inh
8 | COc1ccc(/C=C(/NC(=O)c2cccs2)C(=O)N2CCOCC2)cc1OC | / | 0.7 | 13% | 6.7
2 | CCOC(=O)C1=C(O)/C(=C\c2ccc(OC)c(OC)c2)N=C1C | / | 2.8 | 11% | 5.6
9 | Cc1cccc(NC(=S)NCc2ccco2)n1 | -1.9 | 3.9 | -12% | 5.9

New compounds follow:
The line under a structure holds: E coli growth, MLL AF4-AF9 inh, FGF22 binding, HNF4A DNA FP, RanGTP-Impb inh, Vif A3G, UCH37 DUB inh
#11 Clc1cccc(-c2nc(NCc3cccnc3)c3ccccc3n2)c1
 : 0.7, /, /, 1.7, 7.2, -45%, 1.7
#12 C=CCN=C1SCC(=O)N1S(=O)(=O)c1ccc(C)cc1
 : 0.74, /, /, -1.9, 0.6, -1%, -0.1
#13 O=C(c1ccc2c(=O)n(Cc3ccc4c(c3)OCO4)c(=O)[nH]c2c1)N1CCN(c2ccccc2)CC1
 : 0.69, -2.4, i, 0.6, -1.9, /, -4.6
#14 CC(=O)c1cccc(-c2ccnc3c2CC(C(=O)Nc2cccc(OC(F)(F)F)c2)O3)c1 (stereo not drawn)
 : /, -2.1, i, -3.1, /, /, /
#15 C=CCn1c(NCCOC)nc2c1c(=O)n(C)c(=O)n2C
 : 0.69, /, /, 0.0, 0.1, -9%, 1.4
#16 CC1C(c2ccccc2)=Nn2c(=O)n(-c3ccccc3)c(=O)n21 (stereo not drawn)
 : /, -0.1, i, -0.9, /, 0%, /
#17 NC(=O)c1c(NC(=O)COC(=O)CSc2nnc(-c3ccc(Cl)cc3)o2)sc2c1CCC2
 : 0.71, /, /, 5.2, 4.4, 6%, -2.3
#18 CCN(CC)C(=O)CSc1nc(Cc2ccccc2)nc2ccccc12
 : 0.71, -0.5, i, 3.0, 1.5, /, 2.3
#19 CCn1cc(C(=O)NCC2CCCO2)c2cc(OC)c(OC)cc2c1=O (stereo not drawn)
 : 0.69, /, /, 1.0, -5.5, 12%, -1.9
#20 Cc1cc(C(=O)COC(=O)c2cccnc2Cl)c(C)n1CC1CCCO1 (stereo not drawn)
 : 0.71, 0.4, i, 3.8, -3.1, 9%, 1.9
#21 CSc1ncccc1C(=O)OCC(=O)NC(=O)NCCC(C)C
 : 0.68, /, /, -4.6, 3.2, -2%, 0.9
#22 Oc1ccc2cccnc2c1
 : 0.69, /, /, -11, /, 19%, /
#23 O=C(CN1CCN(S(=O)(=O)c2ccccc2)CC1)Nc1ccc(N2CCOCC2)cc1
 : 0.7, /, /, 0.7, 7.5, 6%, 2.9
#24 COc1ccccc1C(=O)N/N=C/c1ccc2c(c1)OCO2
 : /, -0.2, i, 1.4, 2.2, /, /
#25 COc1ccc(Cl)cc1NC(=O)COC(=O)CCNC(C)=O
 : 0.72, /, /, 3.8, -1.3, -2%, 7.6
#26 CCOc1ccccc1NC(=O)CCNS(=O)(=O)c1ccccc1
 : 0.72, 1.4, i, -5.8, 4.2, /, 4.4
#27 Cc1noc(NS(=O)(=O)c2ccc(N/C=C/C(=O)c3ccc(F)cc3)cc2)c1C
 : 0.71, -0.6, i, 3.0, 3.8, /, 8.6
#28 CCCCN1C(=O)CC(C(=O)O)C1c1ccc(OC)cc1 (stereo not drawn)
 : 0.66, /, /, 0.8, 2.5, 3%, 6.1
#29 CCCCOc1ccc(C(=O)Nc2ccc3c(c2)OCO3)cc1
 : /, -3.0, i, 0.6, -4.3, 4%, /
#30 Cc1cccc(Cn2c(Cc3ccccc3)nc3ccccc32)c1
 : 0.7, 1.5, i, 1.0, -1.9, /, -0.6
#31 CCCCCc1ccc(-c2cn(Cc3ccc(C)cc3)nn2)cc1
 : 0.71, -8.3, i, -1.0, -0.6, /, 35*
#32 CCOC(=O)C1CCCN(Cc2sccc2C)C1 (stereo not drawn)
 : 0.63, /, /, -0.5, 2.8, 8%, 0.4
#33 CCn1cc(C(=O)NCCC2=CCCCC2)c(=O)c2cc(S(=O)(=O)N(C)C)ccc21
 : 0.76, -3.4, i, 0.8, -2.8, 3%, 2.0
#34 CCOC(=O)Cn1c(=O)cc(C)c2cccc(C)c21
 : 0.67, -1.4, i, -1.6, -1.9, 16%, 2.6
#35 COc1ccc(CNC(=O)CC[C@H]2O[C@@H](n3ccc(=O)[nH]c3=O)[C@H](O)[C@@H]2O)cc1
 : /, 0.6, i, 1.4, /, /, /
#36 Cc1ccc(SCC(=O)NN2C(=O)c3ccccc3C2=O)cc1
 : 0.68, 0.1, i, -0.1, ?, -2%, 0.5
#37 COc1ccc(C2=NOC(C(=O)NCc3cccs3)C2)cc1OC (stereo not drawn)
 : 0.68, /, /, /, 0.6, 90µM*, -2.2
#38 COc1ccccc1N1CCN(C(=O)c2cc(=O)c3cc(C)ccc3o2)CC1
 : 0.67, 1.9, i, 6.8, -1.6, -1%, 5.8
#39 Cc1ccc(C2Cc3cc(O)c(O)cc3CN2)cc1 (stereo not drawn)
 : 0.67, 8.6, i, -2.6, 0.4, /, 2.9
#40 Cc1cccc(NC(=O)c2ccc(-n3cccn3)c([N+](=O)[O-])c2)c1
 : 0.66, /, /, -8.0, 0.3, ?, 2.6
#41 Cc1cc(C)nc(N/N=C2/CCSc3ccc(F)cc32)n1
 : /, -5.7, i, 2.9, 5.9, /, /
#42 COc1ccc(CN2CCNC(=O)C2CC(=O)N(C)Cc2nonc2C)c(F)c1 (stereo not drawn)
 : 0.7, -0.3, i, 0.0, 4.4, 4%, 0.2
#43 N#Cc1nc(-c2ccccc2F)oc1N1CCCC1
 : 0.73, /, /, -3.0, 1.2, -9%, -421
#44 COC(=O)[C@H](CC(C)C)NC(=O)Nc1ccccc1F
 : 0.64, -1.2, i, 1.5, 0.2, ?, 2.8
#45 Cc1ccccc1NC(=O)CON=C(N)c1ccccc1
 : 0.66, -0.6, i, -1.2, /, 2%, 3.4
#46 CCN(CC)c1ccc(C(=S)NC2CCCCC2)cc1
 : 0.67, 9.2, i, 0.7, -1.1, 14%, 4.7
#47 CC(C)c1ccc(OCC(=O)Nc2cccc(C(=O)Nc3ccccc3C(=O)O)c2)cc1
 : 0.65, -2.4, /, 0.6, 0.2, 27%, 3.9
#48 O=C(CSCc1ccccc1Cl)N1CCN(c2ccccn2)CC1
 : 0.64, /, /, 0.2, 3.5, 3%, -0.1
#49 Cc1cc(C)cc(OCC(=O)Nc2cccc(S(=O)(=O)NC3=NCCC3)c2)c1
 : 0.64, 4.5, i, 2.3, /, /, 2.3
#50 Cc1cccc(C(=O)NCc2nnc(SCC(=O)NC3CCCC3)n2C)c1
 : 0.68, -0.3, i, -1.5, 3.3, /, 3.6
#51 O=C(NNc1ccnc2cc(Cl)ccc12)C1CCCCC1
 : 0.72, 0.2, i, -3.9, -2.2, -7%, 1.0
#52 CCOc1ccc(OCCn2c(SCC(=O)O)nc3ccccc32)cc1
 : 0.71, 0.0, i, 1.3, -1.7, 16%, 3.6
#53 CCc1ccc2nc3sc(C(=O)O)cc3cc2c1
 : 0.66, -0.2, i, -1.3, -6.0, -8%, -0.9
#54 O=C(COc1ccccc1)NCC(c1cccs1)N1CCOCC1 (stereo not drawn)
 : 0.67, -0.9, i, 2.8, 1.1, 15%, -1.7
#55 Cc1cc(C)c(OCC(=O)Nc2cccc(O)c2)cc1C
 : 0.72, /, /, -0.7, 9.8, 3%, 0.4
#56 NC(=O)c1sc(-c2ccsc2)cc1NS(=O)(=O)c1ccc(C(F)(F)F)cc1
 : /, 8.5, i, -0.1, 0.8, -6%, /
#57 Cc1ccc2c(C)c(C(=O)N(C)Cc3nccn3C)oc2c1C
 : 0.71, 3.4, i, 2.0, 6.4, /, 1.1
#58 Cn1cc(Cl)c(C(=O)NC2CCCCCC2)n1
 : 0.68, /, /, -1.8, 0.0, -2%, 0.4
#59 COC(=O)c1ccc(COC(=O)c2ccc(CS(=O)(=O)c3ccc(C)cc3)cc2)cc1
 : 0.74, /, /, -0.2, 1.9, -1%, -0.1
#60 CN(C)/C=C1/OC(=O)C(C#N)=C1c1ccc(Cl)cc1
 : 0.65, 1.0, i, 5.5, 0.4, -11%, 6.0

(further entries)
The line under a structure holds: E coli growth, MLL AF4-AF9 inh, FGF22 binding, HNF4A DNA FP, RanGTP-Impb inh, Vif A3G, UCH37 DUB inh
#61 COc1cccc(NC(=O)C2CC(=O)n3cnnc3S2)c1 (stereo not drawn)
 : 0.66, /, /, -3.4, /, 32%, 2.5
#62 COc1ccc(OC)c(NC(=O)COc2coc(CN3CCCc4ccccc43)cc2=O)c1
 : 0.65, -8.0, i, -1.8, -9.5, 5%, 1.2
#63 CC1Cc2ccccc2C(CCc2ccccc2)=N1 (stereo not drawn)
 : 0.66, 3.1, i, 0.0, 2.2, -5%, 3.9
#64 Cc1ccc(-c2noc(-c3cc(C(C)(C)C)nn3Cc3ccccc3)n2)cc1
 : 0.66, -5.1, i, 0.0, -0.8, ?, 0.4
#65 O=C(c1cccs1)N1CCN(S(=O)(=O)N2CCOCC2)CC1
 : 0.71, /, /, -1.7, 1.1, 12%, 36*
#66 CCN(Cc1ccccc1)C(=O)CCS(=O)(=O)c1ccc2c(c1)CCN2C(C)=O
 : 0.65, -1.2, i, -3.0, 1.0, /, 1.3
#67 CCCN(C(=O)COC(=O)c1nc2nccc(C)n2n1)C1CCS(=O)(=O)C1 (stereo not drawn)
 : /, -2.8, i, 0.7, /, /, /
#68 O=C(Nc1ccc(Br)cc1)c1cccc(OC(=S)N2CCOCC2)c1
 : 0.69, 2.0, i, 3.6, 0.9, /, 5.6
